CtBP-E1A blk: CtBP/E1A binding inhibition | AlphaScreen GST-E1A/His-CtBP binding, 1536-well; stronger effect = lower value; control for the full effect not named in the record | activity change, % (concentration not given with the values) | actives 0.49% (n = 340,000); in the data active means activity change below about -65%; inconclusive means about -30% to -65%; inactive means above about -30%; also: % is scaled to controls: 0 for no effect and ±100 for the full control effect
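Protein mix (5X: 125 nM each GST-E1A, His-CtBP) was incubated with pinned compound 2 h at 37 deg C in dark, in 50 mM Tris pH 8.0 buffer with 300 mM NaCl. Glutathione donor and nickel acceptor beads followed; AlphaScreen signal read after 1 h.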
TRPV1 potentiator: potentiators of human vanilloid receptor 1 (TRPV1). Q8NER1. TRPV1-expressing cells, Fluo-8 calcium influx, capsaicin EC20 potentiation; host cell line not named in the record; control for the full effect not named in the record. potentiation, % at 8.33 µM. actives 0.02% (n = 320,000); active means potentiation above 80%; inconclusive means 30% to 80%; inactive means below 30%; also: 0% is about no effect
Target sequence (Q8NER1 whole entry, looked up): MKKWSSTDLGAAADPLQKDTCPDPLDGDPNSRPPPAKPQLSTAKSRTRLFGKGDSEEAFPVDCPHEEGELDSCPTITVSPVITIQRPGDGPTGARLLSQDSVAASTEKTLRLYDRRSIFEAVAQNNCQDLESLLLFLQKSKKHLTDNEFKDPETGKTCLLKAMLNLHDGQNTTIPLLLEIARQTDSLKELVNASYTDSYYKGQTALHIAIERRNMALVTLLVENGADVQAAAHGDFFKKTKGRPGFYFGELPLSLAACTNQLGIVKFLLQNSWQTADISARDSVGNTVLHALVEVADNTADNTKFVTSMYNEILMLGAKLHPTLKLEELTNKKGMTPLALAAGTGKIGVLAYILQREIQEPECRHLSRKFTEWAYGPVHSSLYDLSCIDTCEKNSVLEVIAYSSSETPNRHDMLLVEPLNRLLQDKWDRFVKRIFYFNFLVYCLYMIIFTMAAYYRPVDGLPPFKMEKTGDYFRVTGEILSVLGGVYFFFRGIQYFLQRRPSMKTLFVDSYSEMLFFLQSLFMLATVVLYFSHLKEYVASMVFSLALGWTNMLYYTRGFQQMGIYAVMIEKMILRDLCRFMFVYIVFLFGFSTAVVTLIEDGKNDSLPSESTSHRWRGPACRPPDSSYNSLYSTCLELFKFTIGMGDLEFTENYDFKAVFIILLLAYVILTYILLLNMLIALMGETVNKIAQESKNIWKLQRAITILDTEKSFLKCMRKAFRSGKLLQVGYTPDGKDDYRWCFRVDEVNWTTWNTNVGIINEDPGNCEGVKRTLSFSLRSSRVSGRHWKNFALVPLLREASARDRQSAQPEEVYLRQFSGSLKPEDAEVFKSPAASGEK
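Cells expressing TRPV1 were dye-loaded with Fluo-8 and read kinetically: 10 s baseline, 3 min after compound (agonist portion), then 2 min after EC20 capsaicin (allosteric enhancer portion). Calcium-bound dye fluorescence at 480/520 nm.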
Menin MLL FP FL: displaces fluorescein MLL peptide from human menin; FP activity change, % at 61.4 µM; 290,000 tested, under 10 active; AID 1766; Fluorescence polarization, fluorescein-MLL peptide displacement from menin; inconclusive = falling polarisation curve, or a change in total fluorescence; inactive = total fluorescence flat and polarisation flat or rising; no compound was filed as active; the % refers to the polarisation; negative = inhibition;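 also: % of control where 0% means no effect; inhibitors lower the polarisation; unlabelled MLL peptide was the positive control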
gsp antagonist: antagonizes gsp, the McCune-Albright syndrome mutation. gsp-mutant cells, cAMP HTRF, 30 min; control for the full effect not named in the record. actives 0.4% (n = 340,000). AID 624288. Potency, µM (highest dose often 76.9 µM), without a hit: at the top dose activity change, negative = inhibition, hits mostly inhibitors; active = falling curve of any shape with a large fitted effect; inconclusive = falling curve, mostly with a smaller effect; inactive = flat or rising curve; cell line not stated here;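 also: intracellular cAMP measured with PDE inhibitor Ro 20-1724 present during compound exposure; potency is read from the fitted curve at half-maximal effect; % is scaled to controls: 0 for no effect and ±100 for the full control effect; nearly all actives have a fitted effect of over 65% in size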
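Cells in G418 medium, seeded 16-24 h, 37C; buffer exchange to DPBS + 1 mM CaCl2, 0.5 mM MgCl2, 0.05% BSA; cpds in DMSO + […] (300 uM stock), 30 min 37C; HTRF cAMP detection.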
Sfp inh: inhibitors of Bacillus subtilis Sfp phosphopantetheinyl transferase | Q9F4F7 | Biochemical Sfp PPTase activity, qHTS | Potency, µM, for the others: max response, negative = inhibition, usual class: inhibitors | actives 3.5% (n = 310,000) | AID 1490; active = well fitted inhibition curve with a large enough effect; inconclusive = small, poorly fitted or top-dose-only effect, or another doubt; inactive = no such curve, though single readings can be large or run the other way;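 also: the enzyme is Sfp with the accession as filed and its product quenches rhodamine fluorescence; potency is read from the fitted curve at half-maximal effect; 0% = enzyme reaction without inhibitor and -100% = no enzyme wells; top concentration of the series not given in the record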
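Reaction rates are the 30-min fluorescence difference (ex 525, em 598 nm) in wells containing 15 nM Sfp, 5 uM rhodamine-CoA and 12.5 uM BHQ-2-YbbR at pH 7.6 with 10 mM MgCl2.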
gsp agonist: agonists of gsp mutant (McCune-Albright syndrome) | gsp mutant cells, cAMP HTRF, 30 min; control for the full effect not named in the record | AID 624287 | Potency, µM (series often up to 76.9 µM), for the others: at the highest dose activation (cAMP increase), hits mostly activators | actives 0.13% (n = 340,000); active = well fitted activation curve with a large enough effect; inconclusive = small, poorly fitted or top-dose-only effect, or another doubt; inactive = no such curve, though single readings can be large or run the other way; cell line not stated here;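 also: phosphodiesterase inhibitor Ro 20-1724 added with compounds to block cAMP breakdown; potency is read from the fitted curve at half-maximal effect; nearly all actives have a fitted effect of over 60% in size; about a fifth of the inactives were tested at one dose only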
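Cells in DMEM/10% FBS with G418 were pretreated with compounds in DMSO plus […] (300 uM stock) for 30 min at 37C. cAMP was measured by HTRF (cAMP-d2 plus anti-cAMP antibody-K) after 30 min at room temperature.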
ClpP mod: qHTS Assay for Activators of ClpP; purified B. subtilis ClpP, FRET peptide cleavage, 20 min; Potency, µM (top dose mostly 57.5 µM), for inactives: at the highest dose activity change, negative = active; actives 1.9% (n = 340,000); active = well fitted falling curve with a large enough effect; inconclusive = small, poorly fitted or top-dose-only effect; inactive = no such curve, though single readings can be large or run the other way; also: potency is read from the fitted curve at half-maximal effect; the source files actives as falling curves though it sought activators and does not explain the sign; nearly all actives have a fitted effect of over 65% in size; many hits overshoot -100%
Target sequence (P80244 whole entry, looked up): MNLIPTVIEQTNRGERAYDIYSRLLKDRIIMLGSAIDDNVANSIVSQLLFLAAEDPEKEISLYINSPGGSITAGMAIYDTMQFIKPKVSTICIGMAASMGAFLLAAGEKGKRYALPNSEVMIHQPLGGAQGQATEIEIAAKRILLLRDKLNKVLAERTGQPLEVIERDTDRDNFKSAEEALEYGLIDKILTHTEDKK
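FRET quenching reversal measured ClpP activation: 10 microg/mL B. subtilis ClpP at pH 8 with the FRET-FV decapeptide, read at 430 nm after 320 nm excitation. The 20-min minus 0-min signal was scaled between DMSO/no-enzyme wells and ADEP (5.8 microM final).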
Active calls of the source: *; ? = inconclusive; . = no result given; & = joins results of further samples; [ ] = another dose, or the depositor's remark.

SMILES	gsp agonist	CtBP-E1A blk	gsp antagonist	Sfp inh	ClpP mod	TRPV1 potentiator	Menin MLL FP FL
O=C(COc1ccc(S(=O)(=O)NC2CCCC2)cc1)NCC1CCCO1 (centres undefined)	-22.1%	2.6	-6.4%	-7.7%	.	4.4	-3.6
Cc1c(C)c2ccc(OCC(=O)Nc3cccnc3)c(C)c2oc1=O	0.7%	.	6.8%	10.5%	4.6%	13.2	-4.2
CC(C(=O)NCc1ccc2c(c1)OCO2)c1ccc([N+](=O)[O-])cc1 (centres undefined)	10.3%[15.4 µM]	-1.8	1.7%	1.4%	.	18.5	-3.9
CC(C)(C)OC(=O)N[C@@H](Cc1ccccc1)[C@H](O)c1ccco1	.	6.0	8.8%	11.4%	-0.1%	1.6	0.4
Cc1ccc(C(=O)NC(=S)NCc2ccccc2)cc1	1.8%	.	-8.1%	-0.9%	0.0%	-4.4	2.7
CCOc1ccccc1C1C(C(=O)Nc2ccccc2OC)=C(C)Nc2nc(CCCO)nn21 (centres undefined)	?	-0.2	0.4%	4.7%	-1.4%	1.1	-0.2
CCN(CC)CCCNC(=O)CC1Oc2ccc(C)cc2NC1=O (centres undefined)	-57.0%[inhibitor]	3.0	6.2%	6.7%	-2.0%	10.1	-0.3
CCCn1c(SCC(=O)Nc2cc(S(=O)(=O)N(C)C)ccc2OC)n[nH]c1=O	5.4%	.	3.8%	6.5%	0.1%	-1.2	1.4
Cc1cc(NC(=O)CCC(=O)N(CC(=O)NC2CCCC2)c2ccc(C)c(F)c2)no1	9.4%	-9.7	4.5%	11.1%	.	-10.9	-2.6
C[N+](C)(C)CC=O	.	-0.3	-2.8%	.	1.2%	-1.6	1.6
Cn1cccc1Cc1nnc(SCC(=O)NCc2ccc(F)cc2)n1-c1ccc(F)cc1	?	-9.6	0.6%	-5.3%	10.1%	4.4	-3.5
O=C(c1ccc2c(c1)OCO2)C1CCCN(C(=O)c2cnn(Cc3ccccc3)c2)C1 (centres undefined)	18.4%	-1.5	-4.2%	12.4%	-12.0%	-10.7	-0.1
C=CCOc1ccc(/C=C2\SC(=S)N(NS(=O)(=O)c3ccccc3)C2=O)cc1	-29.2%	5.0	-5.2%	-3.8%	.	12.7	4.2
O=C(NCCc1ccc(OC(F)F)cc1)C1CC(=O)N(c2ccc3c(c2)OCCO3)C1 (centres undefined)	29.1%	0.0	-8.8%	.	-0.9%	1.3	.
O=C(Nc1nnc(-c2ccco2)s1)C1CCCCC1	11.0%	0.7	-2.6%	50.1µM*	-9.3%	0.2	7.9
CC(C)CC(O)C1CCN(C(=O)CCc2nnc(-c3ccccc3)o2)CC1 (centres undefined)	-105.4%[inhibitor]	4.3	-2.1%	13.5%	0.8%	-2.5	-2.6
N#Cc1ccccc1COC(=O)c1cccc(S(=O)(=O)N2CCCC2)c1	?	-9.7	-3.9%	.	.	.	.
CCOC(=O)/C=C/C(=O)OCC(=O)Nc1ccc([N+](=O)[O-])cc1	-31.0%[inhibitor]	.	-2.3%	?	2.8%	-11.1	-2.5
Clc1ccc(-c2ccnc(Oc3ccc4ccccc4c3)n2)cc1	-14.7%	7.6	-6.3%	12.9%	-3.3%	22.0	1.5
Cc1ccc(OCC(=O)Nc2cccc(S(=O)(=O)N3CCCCC3)c2)c([N+](=O)[O-])n1	-0.2%	-10.9	-5.5%	5.3%	-0.6%	-2.8	7.5
O=C(NCc1cccs1)C(=O)NCC1OCCCN1S(=O)(=O)c1cccs1 (centres undefined)	0.8%	-4.3	10.4%	17.0%	1.1%	15.2	1.4
Cn1c(N)c(C(=O)COC(=O)COc2ccc3ccccc3c2)c(=O)n(C)c1=O	20.3%[15.4 µM]	0.0	.	6.1%	.	7.1	-5.2
NC1=C(Cl)C(=O)c2ccc(S(N)(=O)=O)cc2C1=O	11.3%[15.4 µM]	-0.6	?	.	5.4%	.	.
COc1cc([N+](=O)[O-])ccc1NC(=O)Nc1ccc(C(=O)N2CCCC2)cc1	-43.2%[inhibitor]	-1.3	2.1%	-15.1%	1.1%	15.0	.
COc1ccc(S(=O)(=O)N/N=C\c2ccc3c(c2)OCO3)cc1	-5.4%	-27.2	-5.4%	3.6%	-5.2%	0.5	4.8
Fc1ccccc1-c1csc(=Nc2cccnc2)n1CC1CCCO1 (centres undefined)	-14.6%[15.4 µM]	-16.7	-10.2%	-84.9%	-1.6%	-17.3	-0.3
Cc1c(Nc2cc(Cl)c3nonc3c2[N+](=O)[O-])c(=O)n(-c2ccccc2)n1C	-1.8%[15.4 µM]	.	-51.9%	?	.	0.8	0.1
O=C(CN1C(=O)c2ccccc2C1=O)NCCOc1ccccc1	6.5%	.	7.3%	10.3%	-1.0%	-13.9	-0.8
N#Cc1c(-c2ccccc2)nc(SCC(=O)NC2CCCCC2)[nH]c1=O	?	.	6.1%	13.6%	-3.2%	10.2	0.1
CN(C(=O)C1CCCO1)c1nnc(-c2ccncc2)s1 (centres undefined)	-4.6%	0.6	5.4%	21.4%	663.0%	2.4	1.9
COc1ccccc1CNC(=O)C(c1ccccc1)c1ccccc1	27.6%	8.2	7.5%	15.6%	.	5.3	-1.4
Cc1cccc(C2c3[nH]c4ccccc4c3CCN2C(=O)c2cn(C)c3ccccc3c2=O)n1 (centres undefined)	0.3%	1.5	-6.1%	7.4%	-1.1%	0.1	-8.2
N#Cc1cc2c(nc1SCc1ccccc1)CCCC2=O	-43.3%[inhibitor]	-1.3	13.8%	-27.9%	-0.5%	-18.2	0.3
Cc1nc(-c2ccc(Cl)cc2)sc1C1(C)CC(c2cccc(Cl)c2)=NO1 (centres undefined)	.	7.6	7.8%	1.6%	?	-12.3	0.0
CCCOc1ccc(NC(=O)C2OC3OC(C)(C)OC3C3OC(C)(C)OC23)cc1 (centres undefined)	.	.	.	28.9%	.	-12.8	-0.8
CN(CC(=O)Nc1ccccc1C(F)(F)F)C(=O)CN1C(=O)C2CCCCC2C1=O (centres undefined)	-37.1%[inhibitor]	19.8	10.2%	.	1.0%	-3.4	.
Cc1ccc(NC(=O)CSc2nnc(-c3cccs3)n2Cc2ccco2)cc1	-11.5%	-9.4	-17.7%	7.7%	-2.2%	9.1	1.9
O=C1N/C(=C/c2cccn2-c2ccc(F)cc2)C(=O)N1Cc1ccccc1	-3.8%	2.8	10.0%	-8.1%	-7.3%	13.9	10.6
CC1(OC(=O)CCc2ccccc2)C(=O)C=C2C=C(c3ccc(C#N)cc3)N(Cc3ccco3)C=C2C1=O (centres undefined)	.	-13.3	-7.3%	-20.1%&-15.7%	1.2%	?	7.5[11.7 µM]
CCOc1ccccc1OCCC(=O)OCC(=O)c1ccc[nH]1	-13.7%	1.3	9.3%	5.1%	1.1%	12.4	2.0
CCOc1ccc(OCC)c(NC(=O)CCCN2C(=S)NC(C)(C)CC2C)c1 (centres undefined)	2.7%[15.4 µM]	-2.4	-3.9%	-6.0%	-1.0%	-3.9	2.6
O=C(c1ccco1)N1C(=O)c2cccc3cccc1c23	-3.8%	-4.0	3.4%	8.6%	1.5%	-2.1	2.0
COc1cc(OC)cc(C(=O)NNC(=O)c2ccc(S(=O)(=O)N(C)c3ccccc3OC)cc2)c1	20.1%	2.9	-28.8%	9.4%	0.1%	-5.3	-3.9
COc1ccc(OC)c(/C=N/NC2=NS(=O)(=O)c3ccccc32)c1	5.5%	.	-2.9%	7.2%	0.9%	?	1.4
COc1ccc(NC(=S)NC(=O)c2ccc3c(c2)OCCO3)cc1	?	?	-13.9%	.	20.7%	.	.
COc1cccc(CC2(CO)CCCN(Cc3ccc(C)s3)C2)c1 (centres undefined)	13.1%[15.4 µM]	-4.5	4.9%	3.5%	.	-12.6	-0.8
CN(C)c1nc(-c2ccccc2)ns1	-1.0%[15.4 µM]	7.8	15.4%	18.3%	.	0.3	0.2
CC1(C)Cc2nc3oc4c(=O)n(CC(=O)Nc5ccc(Cl)cc5)cnc4c3cc2CO1	21.0%[15.4 µM]	8.4	-6.7%	38.0%[activator]	.	-5.3	11.4
COc1ccc(CNC(=O)Nc2cccc(C)c2)cc1	-15.9%	0.1	15.2%	14.6%	0.0%	-8.3	2.1
O=C(CNC(=O)C1(c2ccccc2)CC1)Nc1ccc(F)c(F)c1	0.1%	14.2	6.6%	.	-0.6%	-3.7	.

Further records.
SMILES	gsp agonist	CtBP-E1A blk	gsp antagonist	Sfp inh	ClpP mod	TRPV1 potentiator	Menin MLL FP FL
NC(=O)COC(=O)c1ccc(S(=O)(=O)N2CCCCCC2)cc1	45.7%	3.4	-1.0%	4.8%	-21.9%	-2.3	0.0
CCOC(=O)N=S(N)(=O)c1ccc(Cl)cc1 (centres undefined)	-1.1%	-3.7	6.9%	19.2%	-1.7%	2.6	6.5
Cc1cc(S(=O)(=O)Nc2ccc(C(=O)NCCCN3CCOCC3)cc2)ccc1F	-26.7%	3.5	14.9%	.	-3.1%	?	.
CCCc1cc(=O)oc2cc(OCc3cccc(OC)c3)c(Cl)cc12	6.0%[15.4 µM]	4.2	10.8%	17.7%	.	9.8	-1.4
CCOc1ncccc1C(=O)OCc1ccc(C#N)cc1	-2.1%[15.4 µM]	3.6	6.9%	10.8%	-1.0%	-12.0	8.9
